Screens: PubChem, National Center for Advancing Translational Sciences (NCATS)
Rango complex inh = qHTS Assay for Inhibitors of Rango (Ran-regulated importin-beta cargo) - Importin beta complex formation. Potency, µM (titrated, usually from 92.2 µM), for inactives: top-dose inhibition of complex formation. 340,000 tested, 0.031% active. Importin subunit beta-1 (Homo sapiens), Q14974. Rango CFP/YFP FRET sensor + importin beta, 45 min; active = rising FRET ratio curve, often small or poorly fitted; inconclusive = mostly compound fluorescence or quenching in the first reads; inactive = flat curves in all reads;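 note: potency is the fitted concentration of half-maximal effect; 0% = DMSO wells and 100% = buffer wells lacking importin beta; nearly all actives have a fitted effect of over 15% in size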
Target sequence (Q14974 whole entry, looked up): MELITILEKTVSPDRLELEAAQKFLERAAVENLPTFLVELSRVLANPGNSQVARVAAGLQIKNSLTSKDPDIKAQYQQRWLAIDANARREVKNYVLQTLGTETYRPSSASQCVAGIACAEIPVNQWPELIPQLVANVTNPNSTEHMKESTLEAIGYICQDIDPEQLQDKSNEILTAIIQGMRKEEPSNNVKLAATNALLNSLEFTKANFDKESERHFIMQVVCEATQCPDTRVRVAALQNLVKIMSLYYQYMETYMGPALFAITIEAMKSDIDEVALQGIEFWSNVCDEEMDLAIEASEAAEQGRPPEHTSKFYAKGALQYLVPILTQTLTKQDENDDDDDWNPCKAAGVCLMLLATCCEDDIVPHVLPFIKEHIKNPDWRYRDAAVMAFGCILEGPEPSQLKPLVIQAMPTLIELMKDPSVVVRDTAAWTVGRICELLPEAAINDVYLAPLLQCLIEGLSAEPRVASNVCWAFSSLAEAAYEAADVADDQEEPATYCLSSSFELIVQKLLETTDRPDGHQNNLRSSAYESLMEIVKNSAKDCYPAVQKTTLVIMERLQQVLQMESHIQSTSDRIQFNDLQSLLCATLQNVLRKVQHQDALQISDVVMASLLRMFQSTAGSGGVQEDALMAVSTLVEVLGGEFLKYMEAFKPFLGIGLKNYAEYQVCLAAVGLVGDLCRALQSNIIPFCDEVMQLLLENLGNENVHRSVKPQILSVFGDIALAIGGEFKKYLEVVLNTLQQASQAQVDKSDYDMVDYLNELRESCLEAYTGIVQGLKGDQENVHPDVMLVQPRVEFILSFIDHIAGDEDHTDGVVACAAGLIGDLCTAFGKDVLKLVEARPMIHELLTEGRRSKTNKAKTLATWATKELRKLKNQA
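FRET biosensor Rango (snurportin 1 IBB between N-terminal EYFP and C-terminal Cerulean), 50 nM in PBS/1 mM DTT/0.02% Tween-20/0.1% BSA, preincubated 5 min RT with compound; 0.125 microM importin beta added, 45 min RT, CFP/YFP FRET ratio read.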
GLA inh pH 4.5 = qHTS Assay for Inhibitors of Human alpha-Galactosidase at pH 4.5; Alpha-galactosidase A (Homo sapiens), P06280; purified enzyme, 4-MU-alpha-Gal fluorescence, pH 4.5; activity change, negative = inhibition, % at 105 µM; 230,000 tested, under 10 active; inconclusive = small, poorly fitted or top-dose-only inhibition, or a rising curve; inactive = flat fitted curve, though single readings scatter; no compound was filed as active;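 note: 0% = full activity with enzyme and -100% = basal without enzyme; dose as in the result columns while the protocol names 77 µM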
miR-21 reporter = qHTS Assay for Modulators of miRNAs and/orActivators of miR-21; HeLa miR-21 FLuc reporter, luciferase, 48 h; Potency, µM (top dose mostly 38.3 µM), for the others: at the top dose reporter change, positive = more light; 340,000 tested, under 10 active; AID 2288, 2010; active = well fitted rising curve with a large enough effect; inconclusive = small, poorly fitted or top-dose-only effect; inactive = no such curve, though single readings can be large or run the other way;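 note: % of control where 0% means no effect; miR-21 action dims this reporter so a rising signal means less miR-21 action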
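Compounds were titrated across several concentrations (up to approximately 40 uM) and incubated 48 hours with HeLa miR-21-FLuc reporter cells (miR-21 target sequence downstream of FLuc, endogenous miR-21). Readout was firefly luciferase luminescence after lytic detection reagent.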
Rango release inh = qHTS Assay for Inhibitors of RanGTP induced Rango (Ran-regulated importin-beta cargo) - Importin beta complex dissociation. Biochemical FRET Rango-importin beta, RanGTP-induced dissociation. Potency, µM (doses to about 46.1 µM), without a hit: top-dose activity change, negative = inhibition. 340,000 tested, 0.071% active. AID 540253, 2011; active means falling FRET ratio curve, often poorly fitted, with flat reads before Ran was added; inconclusive means other falling curves, or compound fluorescence or quenching; inactive means flat or rising ratio curve;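 note: potency is the fitted concentration of half-maximal effect; % of control where 0% means no effect; nearly all actives have a fitted effect of over 45% in size; -100% = wells without RanGTP and RCC1; the record marks most hits as doubtful in a second field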
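Quantitative HTS using a FRET biosensor: 0.1 uM Rango, 0.25 uM importin beta, 0.6 uM Ran, 2 mM GTP, 0.2 uM RCC1 final, PBS with DTT, Tween-20 and BSA. Post-read taken 45 min after Ran addition.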
Active calls of the source: *; ? = inconclusive; . = not tested or not shown; & = joins results of further samples.

SMILES | Rango complex inh | GLA inh pH 4.5 | miR-21 reporter | Rango release inh
COCCN1C=C(C(=O)OC)C(c2cc(Br)c(OC)c(OC)c2)C(C(=O)OC)=C1 | ? | ? | 6.1% | ?
O=C(COC(=O)c1ccco1)Nc1cccc(Br)c1 | 0.3% | -1.0 | -0.8% | 2.2%
Cc1nonc1OCCN1CCN(c2ccc([N+](=O)[O-])cc2)CC1 | -0.5% | -13.2 | 14.4% | -16.4%
Cc1ccnn2cc3c(=O)n(C)c(=O)n(C)c3c12 | . | 12.0 | -9.8% | .
CNC(=O)CC1C(=O)N(c2ccc(F)cc2)C(=S)N1NC(=O)c1ccc(Br)cc1 (stereo not given) | ? | . | -21.6% | 0.8%
CC(=O)Nc1ccc(NC(=O)COC(=O)Cc2c[nH]c3ccccc23)cc1 | -1.6% | 9.8 | 18.8% | 14.4%
CCc1ccc(-n2cc(-c3ccc([N+](=O)[O-])cc3)[nH]c2=S)cc1 | 4.6% | 1.9 | -8.7% | 16.0%
COc1ccc(S(=O)(=O)Nc2cccc(Cl)c2)cc1OC | 2.0% | -22.7 | -4.9% | -10.6%
Cc1cc(Cl)ccc1OCC(=O)NN1C(=O)C2C3C=CC(C3)C2C1=O (stereo not given) | 3.3% | -1.2 | 0.2% | -0.5%
C(=N\N1CCOCC1)/c1ccsc1 | -1.0% | . | 1.3% | 3.0%
COc1ccc(C(=O)COC(=O)c2ccc3c(c2)OCO3)c(OC)c1 | 0.6% | . | . | 3.5%
CCOC(=O)[C@H]1[C@H]2COc3ccc(Cl)cc3[C@@H]2N2C(=O)c3ccc(Cl)cc3NC(=O)[C@@]12C | 1.7% | . | . | -14.9%
O=C(CN1C(=O)S/C(=C/c2ccccn2)C1=O)N1CCOCC1 | 3.8% | . | -3.0% | 1.3%
CN(C)c1nc2c(c(=O)n(C)c(=O)n2C)n1CC(=O)c1cccs1 | 0.3% | . | . | -12.7%
O=C(/C=C/c1ccc(Br)cc1)N1CCN(Cc2ccccc2)CC1 | 4.6% | . | . | 15.5%
O=C(N/N=C/c1ccccn1)c1cccc(NC(=O)c2ccc(Cl)cc2)c1 | -1.4% | . | -0.9% | -6.2%
COC(=O)c1ccccc1S(=O)(=O)N1CCC(C(=O)OCc2cccc(OC)c2OC)CC1 | -3.6% | . | . | 6.3%
CCCc1cc(-c2n[nH]c(=S)n2CC)cs1 | 0.3% | -7.0 | -19.3% | 18.6%
COc1cc(NCCCn2cnc3c(OCc4ccccc4)ncnc32)cc(OC)c1OC | 0.1% | . | . | -5.4%
CCOc1ccc2[nH]c(=O)c(CN(CCO)C(=O)c3ccc(Br)cc3)cc2c1 | 0.8% | -14.8 | -0.6% | -14.5%
O=C(Nc1ccc(SC(F)F)cc1)c1ccc2c(=O)n3c(nc2c1)CCC3 | -1.8% | . | . | -11.4%
CCC(COC)NCc1cn(-c2ccc(OC)cc2)nc1-c1cccc(F)c1 (stereo not given) | -4.4% | -13.1 | -6.4% | -2.1%
COc1ccc(NC(=O)C2CCN(c3cnccn3)CC2)cc1OC | -2.6% | . | -1.2% | 28.2%
CC(=O)Nc1ccccc1NC(=O)c1ccccc1 | -1.1% | 3.7 | 0.2% | ?
Cc1ccc(CN2CC(C(=O)Nc3cccc(C)n3)CC2=O)cc1 (stereo not given) | 3.0% | . | . | 8.6%
The list goes on.
SMILES | Rango complex inh | GLA inh pH 4.5 | miR-21 reporter | Rango release inh
Cc1ccc(OCc2ccccc2C)c([N+](=O)[O-])n1 | 2.2% | . | -47.1% | -0.7%
COc1ccc(-c2noc(CCC(=O)N3CCN(c4ccccc4C)CC3)n2)cc1 | 0.2% | . | . | -25.0%
Cc1cc(C)n(C(=O)CNC(=O)C2COc3ccccc3O2)n1 (stereo not given) | 3.3% | -8.3 | -6.8% | 22.6%
O=C(CSc1nnc(-c2cccnc2)n1Cc1ccco1)c1ccc(Br)cc1 | 0.4% | 5.2 | -12.4% | 1.5%
Cc1ccc(OCC(=O)NC(=S)Nc2ccc(S(=O)(=O)Nc3cc(C)on3)cc2)c(Br)c1 | -0.2% | . | -0.9% | -3.1%
COc1cccc(/C=N/NC(=O)N/N=C/c2cccc(OC)c2O)c1O | 2.8% | . | 15.3% | 13.8%
CCN(CC)S(=O)(=O)c1cccc(-c2nnc(SCc3ncc(-c4ccccc4)o3)n2C)c1 | -0.4% | 11.3 | 10.1% | -3.7%
COc1ccc(-c2cc(C(=O)Nc3cc(Br)ccc3O)no2)cc1 | 0.3% | . | -30.9% | -9.5%
CN1CCN(c2ccc(NC(=O)c3cc4ccccc4o3)cc2)CC1 | 0.7% | . | -70.7% | -0.3%
COc1ccccc1NC(=O)CN1C(=O)NC(CC(C)C)C1=O (stereo not given) | -0.1% | 3.3 | -11.3% | -9.4%
CCCCCC[N+](C)(C)CC/C=C1/c2ccccc2Sc2ccc(Cl)cc21 | -1.1% | 1.1 | ? | -4.3%
CC(C)(C)N(Cc1ccccc1)C(=O)COC(=O)c1ccc2ccccc2n1 | -0.5% | . | . | 5.0%
COC(=O)N1[C@H](C)C=C[C@]1(Cc1ccccc1)C(=O)O | -0.6% | 2.8&2.9 | -4.0% | 1.2%
O=C(Cn1c(=O)n(Cc2ccc(F)cc2)c(=O)c2ccccc21)NCC1CCCO1 (stereo not given) | -1.0% | . | 0.6% | -11.5%
CC(C(=O)Nc1ccc2nccnc2c1)N1C(=O)C2C3C=CC(C3)C2C1=O (stereo not given) | -0.6% | -10.7 | -3.8% | -1.4%
CC(Oc1ccc(Cl)cc1Cl)/C(N)=N/O (stereo not given) | 4.2% | 3.5 | 1.3% | -6.3%
CCOc1ccccc1OC(=O)c1cc2ccccc2oc1=O | -2.2% | 7.6 | -12.5% | -3.3%
O=C(Cc1cccc2ccccc12)NN1C(=O)/C(=C\c2cccnc2)SC1=S | -3.6% | 3.0 | -1.2% | 10.7%
Cc1ccc(C(=O)NCC(=O)Nc2ccc(C)c(S(=O)(=O)Nc3ccc(Cl)cc3)c2)s1 | -4.8% | 2.3 | 8.1% | -8.2%
CCOc1ccc(NC(=O)c2ccc(S(=O)(=O)N3CCOCC3)cc2)cc1 | 6.9% | . | -5.2% | 1.0%
O=C1c2ccccc2C(O)(c2ncc[nH]2)N1CCc1ccccc1 (stereo not given) | -0.8% | 6.3 | -2.1% | -5.9%
COc1cc(NC(=O)c2nnn(Cc3ccc(SC)cc3)c2N)cc(OC)c1 | -1.6% | -24.2 | -19.6% | 3.9%
O=C(Nc1ccc2ccccc2c1)c1ccccc1[N+](=O)[O-] | -0.9% | . | . | 4.0%
CCOc1ccccc1C(=O)NC(C(=O)NCc1ccc(F)cc1)C(C)C (stereo not given) | -1.2% | -0.8 | 1.5% | -6.8%
COc1ccc(/C=C/C(=O)c2c(C)nc3ccccn23)cc1 | -2.1% | 4.2 | -45.8% | -2.0%

A draw from above in order of count of non-hydrogen atoms, largest number first:
SMILES | Rango complex inh | GLA inh pH 4.5 | miR-21 reporter | Rango release inh
O=C(Cc1cccc2ccccc12)NN1C(=O)/C(=C\c2cccnc2)SC1=S | -3.6% | 3.0 | -1.2% | 10.7%
COc1ccc(-c2cc(C(=O)Nc3cc(Br)ccc3O)no2)cc1 | 0.3% | . | -30.9% | -9.5%
CCOc1ccccc1OC(=O)c1cc2ccccc2oc1=O | -2.2% | 7.6 | -12.5% | -3.3%

The listing continues:
SMILES | Rango complex inh | GLA inh pH 4.5 | miR-21 reporter | Rango release inh
CC1(C)CC(=O)C2=C(C1)Nc1ccccc1S2 | ? | -7.5 | 0.8% | -7.7%
O=C(CSc1nc(Nc2ccccc2)nc(N2CCOCC2)n1)N1CCc2ccccc21 | 0.2% | 3.1 | -8.1% | 1.3%
CCN(Cc1ccccc1)C(=O)c1[nH]c2ccc(OC)cc2c1C | -6.6% | . | 2.2% | 8.4%
CCCCCC(=O)Nc1c2c(nc3ccccc13)CCC2 | -3.6% | . | 1.2% | 18.5%
CCCN(C(=O)c1nc2nccc(C)n2n1)c1c(N)n(Cc2ccccc2)c(=O)[nH]c1=O | -0.4% | . | . | -2.7%
CC12CCC(=O)C=C1CCCC2=O (stereo not given) | 0.8% | . | . | 9.1%
O=C(O)c1cc2c(cc1NC(=O)c1ccccc1OC(F)F)OCCCO2 | -1.6% | . | -0.2% | 7.4%
C=CCNC(=O)/C(=C\c1ccc(Br)cc1)NC(=O)c1ccccc1OC | 5.5% | -15.6 | -0.1% | 2.3%
COc1ccc(-c2cc3nc(CCl)[nH]c(=O)c3s2)cc1 | -4.1% | . | ? | 0.4%
O=C(Cn1nc(-c2ccc(Cl)cc2)c2ccccc2c1=O)Nc1cccnc1 | -1.7% | 3.4 | -1.4% | -8.8%
COc1ccc(NC(=O)c2cccnc2NCCc2ccccc2)cc1 | ? | -2.7 | -19.3% | 14.3%
CCNC(=S)NNC(=O)c1ccccc1Cl | 1.7% | 6.3 | -1.1% | 0.3%
COc1ccccc1CCC(=O)OCC(=O)Nc1ccc(C)c(S(=O)(=O)N2CCCCC2)c1 | -2.4% | . | . | -19.5%
Cc1cccn2cc(CCNC(=O)c3ccc(Br)o3)nc12 | 0.3% | 4.0 | -3.5% | -2.6%
COc1ccc(NC2CCCN(C(=O)CCc3cccc(F)c3)C2)cc1 (stereo not given) | -3.8% | . | -1.9% | 0.2%
COC(=O)c1ccccc1S(=O)(=O)C(C)(C)C | ? | -17.2 | -1.0% | -3.1%
C[C@H](CO)N1C[C@H](C)[C@H](CN(C)S(=O)(=O)c2ccccc2)Oc2ccc(NC(=O)NC3CCCCC3)cc2CC1=O | -2.1% | . | . | 7.7%
Cc1nc(-c2ccc(Cl)cc2)sc1C1(C)CC(c2ccc(Br)cc2)=NO1 (stereo not given) | -1.2% | . | . | -7.9%
Cc1ccc(Cc2cnc(NC(=O)C3CCCO3)s2)cc1 (stereo not given) | 3.2% | -4.9 | -38.0% | -12.8%
CCOc1ccc(CN2CCN(C(=O)c3cccc(F)c3)CC2)cc1 | -4.3% | -5.9 | 12.7% | -15.1%
COc1ccc(-c2oc(=O)c3cc(OC)c(OC)cc3c2C#CCCO)cc1 | ? | . | . | -2.3%
CC(=O)Nc1ccc2[nH]ccc2c1 | -0.5% | . | 0.2% | 0.5%
CCCCCCCC(=O)C(C)C(=O)N(C)[C@H](Cc1ccc(OC)cc1)C(=O)N(C)[C@H](C(N)=O)C(C)C (stereo not given in full) | 0.2% | . | . | -3.2%
Fc1ccc(NC(=S)Nc2cc(Cl)ccc2Cl)cc1 | 0.8% | 4.8 | 3.6% | -9.3%
CCc1ccc(S(=O)(=O)Nc2c(C)nc3nc[nH]n3c2=O)cc1 | 1.9% | . | -2.0% | 2.5%
Continuation:
SMILES | Rango complex inh | GLA inh pH 4.5 | miR-21 reporter | Rango release inh
COc1cccc(NC(=O)CSCC(=O)O)c1 | -1.6% | 11.8 | 0.7% | -2.4%
COc1ccc(NC(=O)NCCCCc2ccccc2)c(OC)c1 | -1.5% | . | 5.1% | 8.8%
O=c1[nH]c(C2CCN(S(=O)(=O)c3ccc(S(=O)(=O)NC4CC4)cc3)CC2)nc2c1nnn2Cc1cccc(F)c1 | -2.8% | . | -12.0% | -10.1%
CCCCCn1c(SCc2cccc(C)c2)nc2c1c(=O)[nH]c(=O)n2C | -7.8% | -5.3 | -5.3% | -2.4%
CCS(=O)(=O)N1CCN(c2ccc(Cl)cc2[N+](=O)[O-])CC1 | -3.8% | 2.9 | -9.5% | 21.5%
COc1ccc(CCNC(=O)/C=C/C(=O)O)cc1 | -0.1% | 2.2 | -4.6% | -11.2%
Cc1ccc(OC(=O)c2cc(=O)c3ccccc3o2)cc1 | 0.6% | 0.0 | -8.9% | 1.7%
Cc1[nH]c(C)c(S(=O)(=O)Nc2ccccc2)c1C(=O)N1CCCC1 | 0.8% | . | 0.5% | 28.8%
COc1ccc(NC(=S)Nc2ccc(F)cc2)c(OC)c1 | 0.2% | . | . | 0.3%
NS(=O)(=O)c1ccc(N2CCN(C(=O)c3ccco3)CC2)nc1 | 6.6% | . | . | 35.9%

A portion of the library, so the mix of outcomes need not match the whole.
